# TRPML1 agonist = qHTS for Agonists of the Human Mucolipin Transient Receptor Potential 1 (TRPML1); Mucolipin-1 (Homo sapiens), Q9GZU1; TRPML1-expressing cells, Ca2+ dye fluorescence, FDSS; host cell line not named in the record; reference of the full effect not given here; activation, % (concentration not given with the values); 0.12% of 410,000 active; AID 624414, 2012; in the data active = activation above about 50%; inconclusive = about 30% to 50%; inactive = below about 30%; also: 0% is about no effect; the text of the record puts the active cut at 80%
# Target sequence (Q9GZU1 whole entry, looked up): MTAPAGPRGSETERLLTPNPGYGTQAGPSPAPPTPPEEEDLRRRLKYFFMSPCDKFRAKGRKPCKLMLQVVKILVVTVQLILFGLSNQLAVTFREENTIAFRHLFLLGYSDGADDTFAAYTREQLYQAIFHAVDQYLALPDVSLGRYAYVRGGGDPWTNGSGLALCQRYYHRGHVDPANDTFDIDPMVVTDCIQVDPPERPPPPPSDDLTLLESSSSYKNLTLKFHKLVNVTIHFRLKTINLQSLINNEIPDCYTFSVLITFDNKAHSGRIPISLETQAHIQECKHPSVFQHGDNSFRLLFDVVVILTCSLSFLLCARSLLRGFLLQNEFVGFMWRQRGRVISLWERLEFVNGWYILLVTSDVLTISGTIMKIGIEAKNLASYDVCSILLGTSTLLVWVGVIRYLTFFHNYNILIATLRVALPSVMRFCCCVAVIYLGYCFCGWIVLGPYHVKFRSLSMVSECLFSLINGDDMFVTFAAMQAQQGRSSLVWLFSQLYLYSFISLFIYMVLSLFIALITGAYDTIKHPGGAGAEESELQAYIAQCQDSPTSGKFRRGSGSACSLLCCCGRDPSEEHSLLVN
#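 In this qHTS format, compounds were pin-transferred onto Ca8-dye-loaded TRPML1-DL cells induced with Tet overnight, and intracellular Ca2+ fluorescence was recorded kinetically for 110 s after a 10 s baseline. A subsequent 4uM final 54-4 (EC80) addition followed by a second 110 s read served as the antagonist phase.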
# gsp antagonist = qHTS for Antagonists of gsp, the Etiologic Mutation Responsible for Fibrous Dysplasia/McCune-Albright Syndrome: qHTS; gsp-mutant cells, cAMP HTRF, 30 min; control for the full effect not named in the record; Potency, µM (titrated, usually from 76.9 µM), inactives show top-dose activity change, negative = inhibition, actives largely listed as inhibitors; 0.4% of 340,000 active; AID 624288, 2012; active = falling curve of any shape with a large fitted effect; inconclusive = falling curve, mostly with a smaller effect; inactive = flat or rising curve; cell line not stated here;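 also: intracellular cAMP measured with PDE inhibitor Ro 20-1724 present during compound exposure; potency is read from the fitted curve at half-maximal effect; % is scaled to controls: 0 for no effect and ±100 for the full control effect; nearly all actives have a fitted effect of over 65% in size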
#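 HTRF cAMP read-out (cAMP-d2 plus anti-cAMP antibody-K in lysis buffer, 30 min RT). Before lysis, cells are exposed to compounds with […] for 30 min at 37C in DPBS containing Ca/Mg, BSA and Tween 20.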
# gsp agonist = qHTS for Agonist of gsp, the Etiologic Mutation Responsible for Fibrous Dysplasia/McCune-Albright Syndrome: qHTS; Potency, µM (highest dose often 76.9 µM), for the others: at the highest dose activation (cAMP increase), hits mostly activators; 0.13% of 340,000 active; gsp mutant cells, cAMP HTRF, 30 min; control for the full effect not named in the record; active = well fitted activation curve with a large enough effect; inconclusive = small, poorly fitted or top-dose-only effect, or another doubt; inactive = no such curve, though single readings can be large or run the other way; cell line not stated here;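 also: phosphodiesterase inhibitor Ro 20-1724 added with compounds to block cAMP breakdown; potency is read from the fitted curve at half-maximal effect; nearly all actives have a fitted effect of over 60% in size; about a fifth of the inactives were tested at one dose only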
#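 Cells stably selected in G418 were plated at 2000/well, grown 16-24 hr, then given compounds in DMSO with the PDE inhibitor […] (300 uM solution added) for 30 min at 37C; cAMP was read by HTRF.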
# TRPML1 blocker = qHTS for Inhibitors of the Human Mucolipin Transient Receptor Potential 1 (TRPML1); activity change, negative = inhibition, % (no concentration beside the values); Mucolipin-1 (Homo sapiens), Q9GZU1; 0.02% of 390,000 active; TRPML1-inducible cells, Ca2+ dye fluorescence, FDSS; stronger effect = lower value; inhibition of EC80 agonist-evoked calcium signal; in the data active means activity change below about -50%; inconclusive means about -30% to -50%; inactive means above about -30%;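 also: stimulus is agonist 54-4 at its EC80 concentration; % is scaled to controls: 0 for no effect and ±100 for the full control effect; compound concentration not given in the record; the text of the record puts the active cut at -80%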
#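 TRPML1-DL cells, Tet-induced overnight (~16 h, 37 °C) at 1,500 cells/well, were loaded with Ca8 no-wash dye plus quencher for 45-90 min at room temperature. Compounds were pinned during FDSS kinetic reading; agonist 54-4 at EC80 (4 uM final) then added.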
# Menin-MLL FL inh = qHTS Assay for Inhibitors Targeting the Menin-MLL Interaction in MLL Related Leukemias: Competition With Fluorescein Labeled MLL-derived Peptide; FP activity change, % at 61.4 µM; Fluorescence polarization, fluorescein-MLL peptide displacement from menin; 290,000 tested, under 10 active; inconclusive = falling polarisation curve, or a change in total fluorescence; inactive = total fluorescence flat and polarisation flat or rising; no compound was filed as active; the % refers to the polarisation; negative = inhibition;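 also: % of control where 0% means no effect; inhibitors lower the polarisation; unlabelled MLL peptide was the positive control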
# ClpP mod = qHTS Assay for Activators of ClpP | purified B. subtilis ClpP, FRET peptide cleavage, 20 min | Potency, µM (titrated, usually from 57.5 µM), inactives show at the highest dose activity change, negative = active | 1.9% of 340,000 active | AID 651965, 2013; active = well fitted falling curve with a large enough effect; inconclusive = small, poorly fitted or top-dose-only effect; inactive = no such curve, though single readings can be large or run the other way; also: potency is read from the fitted curve at half-maximal effect; the source files actives as falling curves though it sought activators and does not explain the sign; nearly all actives have a fitted effect of over 65% in size; many hits overshoot -100%
# Target sequence (P80244 whole entry, looked up): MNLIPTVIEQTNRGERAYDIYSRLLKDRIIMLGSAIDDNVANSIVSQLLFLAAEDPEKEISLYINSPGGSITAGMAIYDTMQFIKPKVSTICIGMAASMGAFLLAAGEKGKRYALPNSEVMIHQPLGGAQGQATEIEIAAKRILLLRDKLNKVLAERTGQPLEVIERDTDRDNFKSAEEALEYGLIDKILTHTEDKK
#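 Buffer: 100 mM Tris/HCl pH8, 100 mM KCl, 0.05% low protease BSA, 2.5% glycerol, 0.01% Tween-20. ClpP 10 microg/mL final; 20 min RT; delta FRET normalized to ADEP and DMSO controls.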
# An asterisk follows results filed as active; u = inconclusive; x = no result given; [ ] = another dose, or the depositor's remark.
canonical_smiles	TRPML1 agonist	gsp antagonist	gsp agonist	TRPML1 blocker	Menin-MLL FL inh	ClpP mod
Cc1ccc(CNC(=O)CN(C(=O)C2(C)CC(=O)N=C3C=CC=CN32)c2cccc(C)c2C)cc1 (stereo not drawn)	-0.1	9%	2%[15.4 µM]	-8	-7.3	x
COCCn1c(=O)[nH]c2cc(C(=O)NCc3cccnc3)ccc2c1=O	-0.6	13%	2%	-6	1.8	28µM*
CC(C)c1ccc(NC(=O)CCNS(=O)(=O)c2cccc3nonc23)cc1	0.9	0%	-11%	7	-2.1	-3.6%
Cc1cccc(NC(=O)CSc2cn(CC(=O)N3CCOCC3)c3ccccc23)c1C	-0.5	x	x	-15	x	0.3%
Cc1csc2nc(CNS(=O)(=O)c3ccc4c(c3)OCCO4)cn12	0.5	7%	-11%	11	2.9	-2.5%
Cc1ccccc1S(=O)(=O)N1C[C@H]2[C@H]3C(=O)N(c4ccccc4)C(=O)[C@H]3CC(=O)[C@H]2[C@@H]1c1ccc(Cl)cc1	0.1	x	x	-2	x	-0.9%
CC(=O)Nc1cc(C(=O)N2CCCC2)ccc1Sc1ccc(Cl)cc1	1.7	11µM*	18%	19	5.3	-2.1%
CN(CCC1CCOCC1)Cc1nc(Cc2ccccc2F)no1	0.4	4%	-2%	16	3.6	0.0%
Cc1ccc2nc(NNC(=O)c3ccc4c(c3)OCCO4)sc2c1	-0.7	-21%	3%	-1	-1.3	-1.4%
COc1ccccc1OCCNC(=O)c1c(-c2ccccc2Cl)noc1C	-0.6	-6%	-10%[15.4 µM]	16	x	-1.3%
CN(C(=O)CSc1nc(N)nn1-c1ccccc1)c1ccccc1	-0.8	9%	3%	6	-2.3	1.2%
CCN(c1ccccc1)S(=O)(=O)c1ccc(Cl)c(C(=O)NCc2ccco2)c1	2.4	-1%	-35%[inhibitor]	10	x	1.1%
COc1ccc(CN2CCNC(=O)C2CC(=O)NCCCn2cccn2)c(OC)c1 (stereo not drawn)	-0.5	8%	25%[15.4 µM]	-1	-13	x
Cc1cccc(C(=O)N2CCN(c3ccc(C(F)(F)F)cn3)CC2)c1C	-0.1	-1%	-40%	2	2.0	u
O=C1NC[C@H](c2ccccc2)N(CCc2cccc(F)c2)C1=O	-0.7	2%	12%	-16	-0.7	0.5%
Cc1ccc(S(=O)(=O)NCCC(c2ccc(F)cc2)c2ccco2)cc1 (stereo not drawn)	0.2	-9%	-8%	10	9.7	-8.0%
CCOc1ccc(-c2nc(C#N)c(NCC(C)C)o2)cc1	1.0	-6%	3%	0	-1.2	40µM*
CC(C)(C)c1ccc(C(=O)NC(=S)Nn2cnnc2)cc1	0.4	-2%	-13%	-4	4.1	0.5%
CCOCCC(=O)Nc1nnc(CCc2ccccc2)s1	-0.6	8%	-16%	-1	1.3	1.2%
Cc1ccc(-n2c(=O)c3ccc(C(=O)NCc4ccccc4Cl)cc3n(CC(=O)Nc3cccc(Cl)c3)c2=O)cc1	4.6	x	x	-17	x	0.3%
Cc1ccc(-c2cc(-c3n[nH]c(=S)n3C)c3ccccc3n2)cc1	0.2	3%	-18%	35	-1.5	x
CC(=O)Nc1ccc(S(=O)(=O)N2CCN(c3nnnn3-c3ccccc3)CC2)cc1	-0.1	7%	16%	-4	1.9	x
Cc1ccc(C2C(C=Nc3c(C)n(C)n(-c4ccccc4)c3=O)=C(c3ccccc3)Oc3ccccc32)cc1 (stereo not drawn)	-1.1	-15%	8%	-4	6.7	-0.1%
COc1cc(OC)c(NC(=O)Cn2c(=O)cc(C)c3c(C)nn(-c4ccc(C)cc4)c32)cc1Cl	0.1	x	x	-14	x	-2.2%
CC1=C([N+](=O)[O-])C(c2ccc(O)c(O)c2)NC(=O)N1 (stereo not drawn)	-0.5	-6%	-55%[inhibitor]	5	2.7	0.3%
O=C(NCc1ccccc1)c1cccc(NC(=O)N2CCSc3ncccc32)c1	1.2	x	x	5	x	-24%
COc1ccccc1S(=O)(=O)N(C)C[C@H]1OCc2cnnn2CCCC(=O)N([C@H](C)CO)C[C@@H]1C	0.0	x	26%	-7	x	1.1%
C=CCOc1ccc(CNCCO)cc1OCC	-0.5	7%	13%	-8	0.1	-4.6%
N#Cc1cccc(NCC(=O)Nc2cccc(S(=O)(=O)N3CCCCC3)c2)c1	-0.6	u	u	-3	x	-11%
Cc1oncc1C(=O)Nc1ccc2ccccc2c1	0.2	-11%	-7%	1	-1.5	-0.9%
CCc1nnc(NC(=O)C2CCN(S(=O)(=O)Cc3ccccc3)CC2)s1	0.3	-5%	-1%[15.4 µM]	11	4.4	1.6%
O=C(CSc1cccc2cccnc12)NCc1ccco1	0.4	-14%[15.4 µM]	3%	1	2.3	25µM*
CC(=O)Nc1ccc(NC2=C/C(=N/S(=O)(=O)c3cccs3)c3ccccc3C2=O)cc1	0.3	u	-21%	2	-6.5	x
CC1(C)CC[C@]2(C(=O)O)CC[C@]3(C)C(=CC[C@@H]4[C@@]5(C)CC[C@H](O[C@@H]6O[C@H](C(=O)O)[C@@H](O)[C@H](O[C@@H]7OC[C@H](O)[C@H](O)[C@H]7O)[C@H]6O)C(C)(C)[C@@H]5CC[C@]43C)[C@@H]2C1	u	45µM*	x	4	x	0.5%
CCn1cc(CN2CCN(CCc3ccccc3)C(CCO)C2)c(C)n1 (stereo not drawn)	1.7	17%	1%[15.4 µM]	9	-6.4	x
COc1ccccc1CC(=O)Nc1cccc2c1CCCC2	1.3	7%	-40%[inhibitor]	-4	-0.8	-3.2%
Cn1c(=O)c2c(nc(N3CCCCC3)n2CC(O)COc2ccccc2)n(C)c1=O (stereo not drawn)	-0.4	-5%	u	-16	2.8	-0.4%
COC(=O)C1=NN(C(=O)c2ccccc2)C(O)(c2ccc([N+](=O)[O-])cc2)C1 (stereo not drawn)	1.2	-6%	-4%[15.4 µM]	-13	-2.6	-0.1%
CCOC(=O)c1ccc(/C=C2/C=C(c3ccccc3)N(c3ccc(Cl)c(C(=O)O)c3)C2=O)cc1	21	u	6%[15.4 µM]	24	u	1.3%
CS(=O)(=O)N(CC(=O)NCc1ccco1)c1cccc([N+](=O)[O-])c1	2.5	1%	2%	9	1.3	-0.7%

# Continued; it opens with the 2 that closed the last part.
canonical_smiles	TRPML1 agonist	gsp antagonist	gsp agonist	TRPML1 blocker	Menin-MLL FL inh	ClpP mod
CCOC(=O)c1ccc(/C=C2/C=C(c3ccccc3)N(c3ccc(Cl)c(C(=O)O)c3)C2=O)cc1	21	u	6%[15.4 µM]	24	u	1.3%
CS(=O)(=O)N(CC(=O)NCc1ccco1)c1cccc([N+](=O)[O-])c1	2.5	1%	2%	9	1.3	-0.7%
CC1CC(C)CN(CC(=O)N2CCc3[nH]c4ccccc4c3C2)C1 (stereo not drawn)	0.8	3%	10%	7	-22	20%
CCOc1ccccc1OCC(=O)Nc1ccc(S(=O)(=O)Nc2nc(C)cc(C)n2)cc1	-0.6	-11%	-32%[inhibitor]	-2	-2.0	-0.8%
CC(=O)OCc1cc(-c2nc3ccccc3[nH]c2=O)nn1-c1ccc(Cl)cc1	0.0	3%	u	1	-1.5	u
CCC1(C(=O)OC)NC(c2ccco2)C2C(=O)N(c3ccc(F)cc3)C(=O)C21 (stereo not drawn)	2.8	2%	-32%[inhibitor]	-7	-1.9	-1.9%
Cc1cc(Nc2cccc(Cl)n2)n(-c2ccccc2)n1	2.5	10%	0%	34	3.9	-2.6%
CCc1ccc(CNC(=O)C2CCCN(c3nn4c(=O)cc(C)nc4s3)C2)cc1 (stereo not drawn)	0.2	-1%	u	55	1.2	-1.6%
Cc1c(C(=O)NC(=S)Nc2ccc(NC(=O)c3cccs3)cc2)cccc1[N+](=O)[O-]	-0.3	-8%	-19%	2	x	-8.5%
COc1cccc(N(C(=O)c2ccn[nH]2)C2(C(=O)Nc3c(C)cccc3C)CCCCC2)c1	0.1	3%	-28%	13	0.8	-1.1%
O=C1OC(c2ccccc2)=N/C1=C\C=C\c1ccco1	0.7	-9%	0%	-27	3.6	x
Cc1c(Cl)cccc1Nc1nc(N)nc(CSCCO)n1	0.1	13%	-2%	-7	2.2	-2.5%
Cc1ccc(CCNC(=O)C2CC(c3cccc(F)c3)=NO2)cc1 (stereo not drawn)	-0.8	1%	x	-10	-3.9	1.8%
O=C(CN1CCOCC1)Nc1ccc(NC(=O)c2ccccc2F)cc1	0.6	10%	9%	13	1.9	x
Cc1nnc(NCc2ccco2)s1	-1.0	6%	u	-4	0.9	1.5%
N#C/C(=C/c1cn(-c2ccccc2)nc1-c1cccc(OCc2ccc(F)cc2)c1)C(=O)NCCCn1ccnc1	1.2	0%	-1%[15.4 µM]	-7	x	u
COc1ccc(/C=C/c2nc(-c3ccccc3O)n(-c3ccccc3)n2)cc1OC	1.9	x	x	-3	x	-11%
O=C(CC1C(=O)N(c2ccccc2)C(=O)N1CCC1=CCCCC1)Nc1ccc(F)cc1 (stereo not drawn)	1.9	x	x	8	x	0.8%

# Of the compounds above, these contain a thiophene ring, fused or not.
canonical_smiles	TRPML1 agonist	gsp antagonist	gsp agonist	TRPML1 blocker	Menin-MLL FL inh	ClpP mod
CC(=O)Nc1ccc(NC2=C/C(=N/S(=O)(=O)c3cccs3)c3ccccc3C2=O)cc1	0.3	u	-21%	2	-6.5	x
Cc1c(C(=O)NC(=S)Nc2ccc(NC(=O)c3cccs3)cc2)cccc1[N+](=O)[O-]	-0.3	-8%	-19%	2	x	-8.5%

# Going on with the list.
canonical_smiles	TRPML1 agonist	gsp antagonist	gsp agonist	TRPML1 blocker	Menin-MLL FL inh	ClpP mod
COCCn1c(SCC(=O)Nc2cc(C)on2)nnc1C(C)C	-0.3	x	-1%[15.4 µM]	59	7.1	x
COc1ccc2c(c1)NC1(O)c3ccccc3C(=O)C21O (stereo not drawn)	0.5	-6%	-73%[inhibitor]	11	0.7	1.3%
Cc1ccccc1C(=O)O/N=C(\N)c1ccc([N+](=O)[O-])cc1	-0.5	8%	-41%[inhibitor]	-9	2.6	x
COc1ccc(/C(=C/Nc2cccc(Br)c2)C(C)=O)cc1OC	2.8	-2%	-23%[15.4 µM]	61	-9.5	x

# Compound activity (PubChem BioAssay)
